# HPGD inh = blocks human HPGD enzyme activity; P15428; purified HPGD, NADH fluorescence kinetic, PGE2 substrate; Potency, µM, without a hit: top-dose activity change, negative = inhibition, hits mostly inhibitors; 150,000 tested, 4.3% active; active = well fitted inhibition curve with a large enough effect (not every such curve was filed as active); inconclusive = small, poorly fitted or top-dose-only effect, or another doubt; inactive = no such curve, though single readings can be large or run the other way;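 also: top concentration of the series not given in the record; plate controls included wells without enzyme; inactives centre near -10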
# Target sequence (P15428 whole entry, looked up): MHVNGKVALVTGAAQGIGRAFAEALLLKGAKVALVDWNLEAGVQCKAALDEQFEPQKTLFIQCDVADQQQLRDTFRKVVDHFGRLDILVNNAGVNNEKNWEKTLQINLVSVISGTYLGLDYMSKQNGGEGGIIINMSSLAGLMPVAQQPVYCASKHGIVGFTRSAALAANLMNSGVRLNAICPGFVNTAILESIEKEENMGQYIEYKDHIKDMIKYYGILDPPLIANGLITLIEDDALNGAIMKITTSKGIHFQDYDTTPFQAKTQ
#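 20 nM HPGD preincubated 15 min at room temperature with compound in 50 mM Tris-HCl pH 8, 0.01% Tween 20. Started with 1 mM NAD+ and 30 uM prostaglandin E2; NADH fluorescence (360/450 nm) read 5 times over 30-s intervals, last minus first.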
# An asterisk follows results filed as active; ? = inconclusive; & = joins results of further samples. % is scaled to controls: 0 for no effect and ±100 for the full control effect; potency is read from the fitted curve at half-maximal effect.
HPGD inh,Structure
-22%,COc1ccccc1C(=O)O/N=C1/CCCc2c1ccc(OC)c2[N+](=O)[O-]
22µM*,Cc1ccc(C(=O)c2nocc2C(=O)c2cccs2)cc1
-4%,CCCN(CCC)c1nc2ccccc2n2c(C)nnc12
-16%,CC(=O)c1c(C)[nH]c(C(=O)N2CCN(c3ncccn3)CC2)c1C
?,CCc1ccc(CNC(=O)c2cc3c(C)nc4ccccc4c3o2)cc1
-12%,COc1cc(NC(=O)C2CC2C)c(C(=O)O)cc1OC (stereo unspecified)
-5%,O=C(Oc1cccc(C(=O)N2CCOCC2)c1)c1ccc(Br)cc1
-4%,O=C(COc1ccc2c(c1)CCC2)N1CCN(c2ccccc2F)CC1
-1%,COc1ccc(S(=O)(=O)NC2(C(F)(F)F)N=C(c3ccccc3)NC2=O)cc1 (stereo unspecified)
?,COC(=O)c1sc(NC(=O)C(C)C)c(C(=O)OC)c1C

# Reprinted from the part before: 7 entries, then new ones.
HPGD inh,Structure
-16%,CC(=O)c1c(C)[nH]c(C(=O)N2CCN(c3ncccn3)CC2)c1C
?,CCc1ccc(CNC(=O)c2cc3c(C)nc4ccccc4c3o2)cc1
-12%,COc1cc(NC(=O)C2CC2C)c(C(=O)O)cc1OC (stereo unspecified)
-5%,O=C(Oc1cccc(C(=O)N2CCOCC2)c1)c1ccc(Br)cc1
-4%,O=C(COc1ccc2c(c1)CCC2)N1CCN(c2ccccc2F)CC1
-1%,COc1ccc(S(=O)(=O)NC2(C(F)(F)F)N=C(c3ccccc3)NC2=O)cc1 (stereo unspecified)
?,COC(=O)c1sc(NC(=O)C(C)C)c(C(=O)OC)c1C
-16%&5%,O=C(NCCNC[C@@H](O)COc1ccc(O)cc1)N1CCOCC1
-14%,Cc1ccc2nc(=O)c(NNc3ccccc3)cnc2c1
-4%,CCCCN(c1ccccc1)c1ncnc(N)c1[N+](=O)[O-]
0%,CC(C)C[C@@H](CC(=O)N[C@H](CC(=O)N[C@@H]1CCCC[C@H]1C(=O)N[C@H](CC(=O)N[C@@H](CCC(=O)O)CC(=O)O)Cc1ccccc1)C(C)C)NC(=O)[C@@H]1CCCC[C@H]1N
-9%,O=C(Nc1ccc(Oc2ccc3c(c2)C(=O)N(c2ccc(O)cc2)C3=O)cc1)c1cccs1
-6%,Nc1nc(SCc2ccc(Cl)cc2Cl)n[nH]1
-12%,Cc1ccc(NC(=O)c2cc(NC(=O)c3ccco3)ccc2N2CCOCC2)cc1Cl
-11%,O=C(Nc1cccnc1Cl)c1ccc(S(=O)(=O)N2CCCCCC2)cc1
-11%,CCc1cccc(NC(=O)c2ccc(Br)o2)c1
-25%,CC(=O)Nc1ccc(NC(=O)C(C)OC(=O)CCC(=O)c2ccc(F)cc2)cc1 (stereo unspecified)
-2%,O=C(Nc1nc(-c2cccc(Br)c2)cs1)Oc1ccccc1
-12%,CCCCOc1ccc(-c2csc(N)n2)cc1[N+](=O)[O-]
-6%,CNCCOc1ccccc1C(C)(C)C
-16%,O=C(CN1CCN(c2ccccc2)CC1)Nc1ccc(OCc2ccccc2)cc1
-5%,CC(C)[C@H](NC(=O)Nc1ccc(Oc2ccccc2)cc1)C(=O)O
-11%,COc1ccc(OC)c(NC(=O)CCCN2C(=O)C3C4C=CC(C4)C3C2=O)c1 (stereo unspecified)
-14%,CC1CCCCN1C(=S)NCCc1ccccc1 (stereo unspecified)
-9%,CC(C)C(C)(C#N)NC(=O)CSc1nnc(-c2ccncc2)n1Cc1ccccc1 (stereo unspecified)
-29%,Cc1ccccc1NC(=S)C1=C(O)c2sccc2N(C)S1(=O)=O
10%,COCCNCC#CCOc1ccc(OC)cc1
-2%,COc1ccc(CC(=O)Nc2ccc(-c3noc(COc4ccccc4C)n3)cc2)cc1
-4%,O=C(O)CSc1ccc(N=C=S)cc1
-19%,COc1ccccc1OCCNC(=O)c1ccccc1C
-24%,COCCCN1C(=O)C(=O)/C(=C(/O)c2ccc3c(c2)CC(C)O3)C1c1cccnc1 (stereo unspecified)
-12%,O=C(NC(=S)Nc1ccccc1N1CCOCC1)c1ccc([N+](=O)[O-])cc1
-18%,COCCNc1nc2c(c(=O)n(Cc3ccc(OC)cc3)c(=O)n2C)n1C
-10%,CC(C)OCCCNC(=O)C1CCC(CNS(=O)(=O)c2ccc(Cl)cc2)CC1 (stereo unspecified)
-2%,CC[C@](N)(C(=O)O)C(C)C
?,Cc1cc(NCCCN2CCOCC2)n2nc(C)c(-c3ccc(F)cc3)c2n1
-17%,NC(=O)c1ccccc1OCC(=O)NC12CC3CC(CC(C3)C1)C2
?,Cc1nnc(NC(=O)COc2ccc3c(C)cc(=O)oc3c2)s1
-3%,C=CCN(CC=C)C(=O)c1cc(Cl)ccc1[N+](=O)[O-]
?,CC(C)N(C(=O)c1ccc2nc(-c3ccccc3)c(-c3ccccc3)nc2c1)C(C)C
-2%,Cc1noc(C)c1C(=O)N1CCC[C@@]2(CCN(Cc3ccccc3)C2)C1
-25%,CC(C)Oc1ccc(/C(O)=C2/C(=O)C(=O)N(CCN(C)C)C2c2ccco2)cc1 (stereo unspecified)
-6%,Cc1cc(N2CCOCC2)nc(-c2ccccc2O)n1
5%,Cc1noc(NS(=O)(=O)c2ccc(NC(=O)CCC3CCCCC3)cc2)c1C
-9%&-9%,CC1CCCC(C)N1NC(=O)c1ccc(Cl)c(S(N)(=O)=O)c1 (stereo unspecified)
-7%,COc1cc(CNCc2cccs2)cc(Br)c1OC
-17%,Cc1cccc(NC(=S)Nc2ccc(Br)cc2)c1
-30%,CCN(CC)c1ccc(NC(=O)c2cc(Cl)ccc2OC)cc1
-4%,CCN1CCN(CCCNc2ncnc3nc[nH]c23)CC1
-14%,O=C(Nc1cccc(Br)c1)c1ccc(CSc2ccccc2)cc1
22µM*,O=C(NC(=S)Nc1ccc(N2CCOCC2)cc1)c1ccco1
?,CCCn1c2ccccc2c2cc(C(=O)O)ccc21
-10%,CCc1cc[n+](-c2nc([O-])sc2C=O)cc1
-10%,COc1cccc(NC(=O)C(Sc2nnc(-c3ccncc3)n2-c2ccc(Cl)cc2)c2ccccc2)c1 (stereo unspecified)
-8%,CC1CC(C)CN(S(=O)(=O)c2ccc3c(c2)oc(=O)n3CC(=O)N2CCOCC2)C1 (stereo unspecified)
?,Cc1ccc(C2CC2c2n[nH]c(=S)n2-c2ccc(C)cc2)cc1 (stereo unspecified)
-13%,CCOCCc1nnc(NC(=O)C(CC)c2ccccc2)s1 (stereo unspecified)

# (further entries)
HPGD inh,Structure
-3%,O=C(O)C1(c2cccc(Cl)c2)CCC1
0%,COc1ccc(-c2nc3c(c4c2C[C@H](c2ccccc2)OC4)CN(S(=O)(=O)c2ccc(NC(C)=O)cc2)CC3)c(C)c1
?,Clc1nc(-c2ccccc2)cc(-c2ccccc2)n1
-2%,CCCCNC(=O)OC(C)CNC(=O)Oc1cccc(C)c1 (stereo unspecified)
-16%,COc1ccc(C(=O)NC(Nc2ccc(C)cc2)C(Cl)(Cl)Cl)cc1 (stereo unspecified)
-19%,CCOC(=O)c1c(NC(=O)C2CCCO2)sc2c1CCC2 (stereo unspecified)
-13%,O=C(COc1ccc(Cc2ccccc2)cc1)c1ccc(F)cc1
-13%,O=C(c1cccc(F)c1)N1CCc2ccccc21
13%,COc1cccc(-c2cc(C(=O)Nc3cnn(Cc4ccccc4C)c3)no2)c1
-1%,COc1ccc(NC(=O)CSc2nccn2-c2ccccc2)c(OC)c1
-5%,CCOC(=O)c1ccccc1OCc1cc(/C=N/n2cncn2)ccc1OC
-14%,CCN1C(=O)c2ccccc2S(=O)c2ccc(C(=O)N3CCCCCC3)cc21 (stereo unspecified)
-12%,CCOC(=O)CNC(=O)Nc1ccccc1C(=O)OC
?,O=C1c2ccccc2NC(c2c(Cl)cccc2Cl)N1Cc1ccccc1 (stereo unspecified)
-2%,Cc1cc(C)nc(SCC(=O)NC2=NN=C(c3ccc(Br)cc3)CS2)n1
-16%,COc1ccc2[nH]c(C)c(C(=O)CN3CCOCC3)c2c1
-2%,Cc1ccc(C)c(N2CCN(CCCNC(=O)Cn3cc4c(n3)CCCCC4)CC2)c1
?,CCc1c(C)sc(NC(=O)c2cc(-c3cc(OC)ccc3OC)on2)c1C#N
-6%,O=C(Cc1cn2ccsc2n1)Nc1nc2c(s1)CCCC2
-2%,COc1ccc(S(=O)(=O)CCc2nnc(NC(=O)c3cccs3)s2)cc1

# Some of the entries so far, with each value named.
> Cc1cc(N2CCOCC2)nc(-c2ccccc2O)n1
  HPGD inh = -6%

> CC1CCCC(C)N1NC(=O)c1ccc(Cl)c(S(N)(=O)=O)c1 (stereo unspecified)
  HPGD inh = -9%&-9%

> COC(=O)c1sc(NC(=O)C(C)C)c(C(=O)OC)c1C
  HPGD inh = ?

> CCOC(=O)CNC(=O)Nc1ccccc1C(=O)OC
  HPGD inh = -12%

# The list goes on:
HPGD inh,Structure
-15%,CCOc1ccccc1CNC(=O)c1ccc(Sc2ccc(Cl)cc2)c(NC(C)=O)c1
-9%,CC(C)c1ccc(NC(=O)COC(=O)c2c[nH]c(=O)[nH]c2=O)cc1
-1%,CCCCCCCC/C=C\CCCCCCCC(=O)OC[C@@H](O)COP(=O)(O)O
?,Cc1ccc(OC(=O)c2ccc(N3CCOCC3)c([N+](=O)[O-])c2)cc1
-9%,C(=N\n1cnnc1)/c1ccccn1
-13%,NC(=O)C1CCCN(C(=S)Nc2ccccc2)C1 (stereo unspecified)
-2%,CCC1=C(OC(=O)N(CC)CC)N2C(=O)OC(=NCCOC)[C@]2(C)[C@H]2C1=CC[C@H]1C(=O)N(CC)C(=O)[C@H]12
-11%,Cc1ccc(SCC(=O)N2CCc3ccccc32)cc1
-6%,COc1ccc(CCNc2nnc(C)c(=O)[nH]2)cc1OC
-6%,O=C(c1nn(Cc2ccccc2)c(=O)c2ccccc12)N1CCc2ccccc2C1
-16%,O=C(c1cc(C(F)(F)F)cc(C(F)(F)F)c1)N1CCC2(CCCN(c3ccncc3)C2)CC1
-6%,CCC(Cc1ccccc1)NC(=O)CSc1ccsc1[N+](=O)[O-] (stereo unspecified)
-11%,CCn1c(=O)c2c(nc(SCc3ccccn3)n2C)n(C)c1=O
?,COc1ccc(C2c3sc(=O)[nH]c3SC3C4CCC(C4)C23)cc1 (stereo unspecified)
-6%,CC(=O)c1c(C(C)=O)c(C)n(-c2nc(-c3ccc(C)c(C)c3)c(C)s2)c1C
-1%,O=C(CCS(=O)(=O)Cc1ccccc1)NC1CCCCC1
-2%,COC(=O)c1nn(-c2ccccc2)c(Cl)c1/C=N/OC(=O)c1ccc(Cl)c(Cl)c1
-13%,O=C(C(c1ccccc1)c1ccccc1)N1CCN(CC(O)COc2ccccc2)CC1 (stereo unspecified)
-6%,CCCCC(=O)NS(=O)(=O)c1ccc(NS(C)(=O)=O)cc1
-18%,COC(=O)c1[nH]c2ccc(F)cc2c1NC(=O)Nc1ccc(OC)cc1
-27%,O=C1CC(Nc2ccc(N3CCOCC3)cc2)C(=O)N1c1cccc(C(F)(F)F)c1 (stereo unspecified)
?,O=C(O)c1ccccc1C(=O)Nc1ccc(-c2csc(-c3ccccc3)n2)cc1
2%,CCn1c(SCC(=O)c2cc(C)n(C)c2C)nnc1-c1ccccc1
-16%,CCOC(=O)N1CCN(C(=O)CS(=O)(=O)c2cn(Cc3cccc(F)c3)c3ccccc23)CC1
-12%,Cn1ncc2c1ncn1nc(CCc3ccccc3)nc21
-10%,COC(=O)CC1C(C)(C)C(=O)C2CC3=C(CC[C@]4(C)C3=CC(=O)OC4c3ccoc3)[C@@]1(C)C2=O (stereo partly specified)
-2%,O=C1CN2C(=Nc3ccc(Cl)cc3C2c2ccccc2)CN1 (stereo unspecified)
3%,O=C(Nc1nc2ccccc2s1)C1c2ccccc2Oc2ccccc21
-13%,CC1(C)Cc2c(sc3c2c(=O)n(Cc2ccccc2)c2nncn32)CO1
?,CCOC(=O)c1cnc2nc(NCc3ccc(OCc4ccccc4)cc3)[nH]n2c1=O
-9%,O=C1CC(c2ccc(O[C@@H]3OC(CO)[C@@H](O)C(O)C3O)cc2)Oc2cc(O)ccc21 (stereo partly specified)
-12%,Cc1ccc(NC(=O)CN(c2ccc(C)cc2)S(=O)(=O)c2cccc3nonc23)cc1
-2%,COc1ccccc1-n1c(SCC(=O)NC2CCCCC2)nc2c(c1=O)SCC2
?,CCn1c(-c2cccs2)nc2ccccc21
-4%,Cc1cc2c(c(=O)n1CCN(C)C)C(c1ccncc1)C(C#N)=C(N)O2 (stereo unspecified)
?,CC(C)Cc1nc2oc3c(NCc4cccnc4)ncnc3c2c2c1CCC2
14µM*,CC(C)C(=O)NC(=S)Nc1sc2c(c1C(N)=O)CCCC2
?,Cc1noc(C)c1C(=O)N1CCC2(CC1)CN(c1ncccn1)C2
-12%,O=C(CNS(=O)(=O)c1ccc(Br)s1)Nc1ccc2c(c1)OCCO2
-18%,Cc1c(Cl)cccc1NC(=S)NC(=O)CCN1C(=O)c2ccccc2C1=O
2%,O=C(O)C1CC(=O)N(CCc2c[nH]c3ccccc23)C1 (stereo unspecified)
5%,CC[N+](C)(CC)CC(O)COCC1COc2ccccc2O1 (stereo unspecified)
-10%,O=C1CC(c2ccc(F)cc2)CC(O)=C1C1NCCc2ccccc21 (stereo unspecified)
0%,COCCOCCn1c(CCCO)nc2ccccc21
-11%,COc1ccc(OCC(=O)NCCc2ccc(S(N)(=O)=O)cc2)cc1
-25%,CCOC(=O)c1ccc(N2N=C(C)/C(=C/C=C/c3ccco3)C2=O)cc1
-10%,Oc1ccc(Cc2nccc3cc(O)c(O)cc23)cc1O

# Screening data (PubChem BioAssay)

# This is a subset; count on the stated rates, not on these rows.
